PMP22 txn prim – PMP22 gene transcription modulation; S16 Pmp22-F2sN Schwann cells (luciferase reporters placed in the Pmp22 gene), FLuc/NLuc coincidence luminescence, 24 h; Potency, µM (doses to about 57.5 µM), for the others: top-dose activity change, negative = inhibition, most hits filed as inhibitors; 43,000 compounds, 2% hits; active = clear falling dose curves in both reporters; inconclusive = both reporters move, but less clearly or upward; inactive = either reporter flat; the % is the NLuc reporter signal; note: % is set by controls: 0 for no effect and ±100 for the full control effect; some results filed as inactive show a strong effect at the top dose
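S16 Schwann cells carrying FLuc/NLuc coincidence reporter in the Pmp22 3' UTR treated with compound 24 h at 37C; FLuc then NLuc luminescence read sequentially by dual-luciferase reagents.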
HTT prom inh – inhibits huntingtin promoter activity; HEK293 HTT promoter firefly luciferase reporter (activity 0% = vehicle and -100% = no light), 24 h; Potency, µM (highest dose often 57.5 µM), inactives show top-dose activity change, negative = inhibition, hits mostly inhibitors; 48,000 compounds, 0.93% hits; active = well fitted inhibition curve with a large enough effect; inconclusive = small, poorly fitted or top-dose-only effect; inactive = no such curve, though single readings can be large or run the other way; note: nearly all actives have a fitted effect of over 50% in size
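Quantitative HTS used concentration series of up to 57.5 uM final on HEK293 luciferase reporter cells, 24 h at 37 degrees C. Readout was Dual-Glo firefly luminescence.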
The depositor's hits bear a star; ? = inconclusive; / = no result given; & = joins results of further samples; [ ] = another dose, or the depositor's remark. Potency is the fitted concentration of half-maximal effect. This is a subset; rates above refer to the full screens.

molecule,PMP22 txn prim,HTT prom inh
O=c1n(Cl)c(=O)n(Cl)c(=O)n1Cl,/,16.1%
COc1cc2cc(c1Cl)N(C)C(=O)C[C@H](OC(=O)C(C)C)[C@]1(C)O[C@H]1[C@H](C)[C@@H]1C[C@@](O)(NC(=O)O1)[C@H](OC)C=CC=C(C)C2,/,-26.4%
O=C(Cn1cc(C(=O)c2ccccc2)c2ccccc21)Nc1ccc(Br)cc1,?,-22.1%
Oc1ccc2c3c1O[C@H]1c4[nH]c5c(c4C[C@@]4(O)[C@@H](C2)N(CC2CC2)CC[C@]314)C[C@@]1(O)[C@H]2Cc3ccc(O)c4c3[C@@]1(CCN2CC1CC1)[C@H]5O4,/,5.2%
O=C(CCl)c1ccc(Cl)cc1Cl,/,-0.3%
CCOC(=O)C1(c2ccccc2)CCN(CCC(C#N)(c2ccccc2)c2ccccc2)CC1,/,-10.9%
CN1C(=O)CCS(=O)(=O)C1c1ccc(Cl)cc1 (stereo not drawn),/,2.5%&-20.9%
CN(C)CCc1c[nH]c2ccccc12,/,-1.3%[222 µM]
O=S(=O)(O)C(F)(F)C(F)(F)C(F)(F)C(F)(F)C(F)(F)C(F)(F)C(F)(F)C(F)(F)F,/,5.2%[116 µM]
OC(O)C(Cl)(Cl)Cl,/,12.6%
C[C@@H]1C[C@@H]([C@H](O)CC2CC(=O)NC(=O)C2)C(=O)[C@@H](C)C1,/,?
C[C@]12CCC(=O)C(O)=C1CC[C@@H]1[C@@H]2CC[C@]2(C)C(=O)CC[C@@H]12,/,0.1%
O=C(O)CNC(=O)c1c(O)c2ccccc2n(Cc2ccccc2)c1=O,/,3.0%
C[C@H]1O[C@@H](O[C@H]2[C@@H](O)C[C@H](O[C@H]3[C@@H](O)C[C@H](O[C@H]4CC[C@@]5(C)[C@H](CC[C@@H]6[C@@H]5CC[C@]5(C)[C@@H](C7=CC(=O)OC7)CC[C@]65O)C4)O[C@@H]3C)O[C@@H]2C)C[C@H](O)[C@@H]1O,/,-38.6%
C[N+]1(CCC(C(N)=O)(c2ccccc2)c2ccccc2)CCCCC1,/,-4.4%
CC[C@@H](CO)NC(=O)[C@@H]1C=C2c3cccc4[nH]cc(c34)C[C@H]2N(C)C1,/,1.7%
CCOC(=O)c1cncn1C(C)c1ccccc1 (stereo not drawn),/,9.5%
Cc1ccc(OCC(=O)N2CCN(CCc3ccncc3)CC2)cc1C,-1.5%,-10.3%
CCOc1ccc2nc(NC(=O)c3cccn(Cc4ccc(C)cc4)c3=O)sc2c1,-22.7%,-35.2%
C[C@]12Cc3nonc3C[C@@H]1CC[C@@H]1[C@@H]2CC[C@@]2(C)[C@H]1CC[C@]2(C)O,/,-27.4%
COc1ccc2c(c1OC)CN1CCc3cc4c(cc3C1C2)OCO4 (stereo not drawn),/,-9.6%&-10.4%
CCN(CC)CCSc1nc2ccccc2c(=O)n1-c1ccc(Cl)cc1,?,-4.6%
O=C(NC(=O)c1c(F)cccc1F)Nc1cc(Cl)c(OC(F)(F)C(F)C(F)(F)F)cc1Cl (stereo not drawn),/,-8.1%
CCc1cc(OC)c(C[C@H](C)N)cc1OC,/,-10.4%[116 µM]
COC(=O)[C@@H](N)CCCN/C(N)=N/[N+](=O)[O-],/,-6.1%

Filtered by structure, those above with an NH in an aromatic ring (3)
molecule,PMP22 txn prim,HTT prom inh
Oc1ccc2c3c1O[C@H]1c4[nH]c5c(c4C[C@@]4(O)[C@@H](C2)N(CC2CC2)CC[C@]314)C[C@@]1(O)[C@H]2Cc3ccc(O)c4c3[C@@]1(CCN2CC1CC1)[C@H]5O4,/,5.2%
CN(C)CCc1c[nH]c2ccccc12,/,-1.3%[222 µM]
CC[C@@H](CO)NC(=O)[C@@H]1C=C2c3cccc4[nH]cc(c34)C[C@H]2N(C)C1,/,1.7%

Following part:
molecule,PMP22 txn prim,HTT prom inh
CCOC(=O)Nc1ccc(NCc2ccc(F)cc2)cc1N,/,-8.2%
O=c1c2ccccc2nc(/C=C/c2ccccc2)n1-c1ccccc1F,?,?
COc1ccc(NC(=O)c2cccn(Cc3ccc(Cl)cc3)c2=O)c(OC)c1,?,12.6µM*
c1ccc(N2CCNCC2)cc1,/,-1.6%
CCC1(C2=NCCN2)Cc2ccccc2O1 (stereo not drawn),/,10.7%
NP(N)(=O)NC(=O)c1ccc(F)cc1,/,-2.2%
O=S(=O)(CC1CS1)c1ccc(Oc2ccccc2)cc1 (stereo not drawn),/,13.4%
CCCCCc1nc2ccccc2c(=O)n1-c1ccc(C)cc1,5.3%,-9.3%
CCC1(c2ccc(N)cc2)CCC(=O)NC1=O (stereo not drawn),/,-8.4%&-4.5%
COP(=S)(OC)Oc1ccc(S(N)(=O)=O)cc1,/,-3.6%
CCOc1ccc2nc(NC(=O)c3cccn(Cc4ccccc4Cl)c3=O)sc2c1,-6.6%,2.1%
Cc1ccc(CNC(=O)CCCn2c(=O)c3sccc3n(CC(=O)Nc3c(C)cccc3C)c2=O)cc1,-6.7%,-16.3%
O=C(Nc1ccncc1)C(=O)c1cn(Cc2ccc(Cl)cc2)c2ccccc12,/,-9.6%
COc1cccc(NC(=O)c2cccn(Cc3ccccc3C)c2=O)c1,-24.2%,?
CCN(CC)C(=O)c1ccc(NC(=O)CCn2nc(-c3ccc(C)cc3)c3ccccc3c2=O)cc1,?,?
Cc1cccc(CN2C(=O)CN=C(c3ccccc3)c3cc(Cl)ccc32)c1,-26.2%,-30.0%
COc1cc(CC(C)N)cc(OC)c1OC (stereo not drawn),/,-2.9%[116 µM]
CCCSP(=O)(OCC)SCCC,/,7.2%[116 µM]
O=c1c2ccccc2nc(/C=C/c2ccccc2O)n1-c1ccc(Br)cc1,?,?
COC[C@@H](NC(C)=O)C(=O)NCc1ccccc1,/,-4.7%
CCC(=O)N1CC(=O)Nc2ccc(C)cc2C1c1ccc(F)cc1 (stereo not drawn),-50.1%,-4.2%

Compound profiles, as listed above. Order of screens: PMP22 txn prim, HTT prom inh
`O=C(NC(=O)c1c(F)cccc1F)Nc1cc(Cl)c(OC(F)(F)C(F)C(F)(F)F)cc1Cl` (stereo not drawn) reads /, -8.1%
`COP(=S)(OC)Oc1ccc(S(N)(=O)=O)cc1` reads /, -3.6%
`CCN(CC)C(=O)c1ccc(NC(=O)CCn2nc(-c3ccc(C)cc3)c3ccccc3c2=O)cc1` reads ?, ?
`Cc1ccc(OCC(=O)N2CCN(CCc3ccncc3)CC2)cc1C` reads -1.5%, -10.3%

Given with each value named: entries from further up.
c1ccc(N2CCNCC2)cc1
  PMP22 txn prim = /	HTT prom inh = -1.6%
CCC1(C2=NCCN2)Cc2ccccc2O1 (stereo not drawn)
  PMP22 txn prim = /	HTT prom inh = 10.7%
NP(N)(=O)NC(=O)c1ccc(F)cc1
  PMP22 txn prim = /	HTT prom inh = -2.2%

Compound activity (PubChem)
